PrP 5UTR inh: suppresses PrP 5' UTR mRNA reporter expression. cell-based PrP 5' UTR mRNA reporter, plate reader. actives 0.35% (n = 340,000). inhibition, % (no concentration beside the values);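 active = every replicate at 50% or more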;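 also: 0 = median of the neutral control wells; tested in H4 reporter cells; numbers are from one replicate; inactives centre near -14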
BJeLR lethal: BJeLR cell viability loss; actives 0.17% (n = 300,000); BJeLR (HRASV12) viability, CellTiter-Glo ATP luminescence, 48 h; reference of the scale not given here; inhibition, % (test concentration not listed); AID 1554;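 active = replicate mean above 50%; inconclusive = above 50% but judged a plate artefact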;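 also: 50 nL library stock added to about 25 µL; numbers are from one replicate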
Bead autofluor: compound fluorescence in toxin protease inhibitor counterscreen | compound autofluorescence counterscreen, microsphere flow cytometry; active compounds read high | fluorescence intensity (concentration not given with the values) | actives 3.1% (n = 360,000);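 active = at least 3 SD above the mean of all compounds, about 16000 in these data; inconclusive = too few beads counted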;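 also: 100 nL of 1 mM stock went into each well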
Sa ugtP lethal: kills S. aureus RN4220 lacking UgtP. S. aureus RN4220 ugtP deletion, OD600 growth, 16 h; some inactives read as strong as hits. growth inhibition, % (test concentration not listed). actives 0.54% (n = 330,000);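 active = z-score under -3 and OD600 up to 0.15 on both plates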;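 also: plate controls were untreated wells for no effect and antibiotic for full effect; wells of about 80 µL received 100 nL stock; the first replicate is given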
Mtb hypoxia rep: Mtb hypoxia fluorescent reporter inhibition | M. tuberculosis hypoxia-regulated fluorescent reporter, fluorescence | fluorescence inhibition, % (no concentration beside the values) | actives 0.1% (n = 300,000);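 active = 35 to 45% if threefold the growth effect, above 45% if 1.5-fold the growth effect; inactive = the rest, general growth blockers included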;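 also: wells of about 50 µL received 100 nL stock; 0% = vehicle wells and 100% = reference inhibitor wells; whole bacteria with a GFP reporter of the hypoxia response; strong numbers were not always called active; many hits fall short of the cut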
RN4220 kill: S. aureus RN4220 growth inhibition | OD600, 16 h | inhibition, % (no concentration beside the values) | actives 0.33% (n = 330,000);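 active = z-score of -3 or lower and OD600 up to 0.18 on both plates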;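 also: plate controls were untreated cells for no effect and reference antibiotic for full effect; stock transfer was 100 nL into about 80 µL; one replicate is shown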
Mtb hypoxia rep growth: second read-out of Mtb hypoxia rep, no call of its own (marks repeat the call); growth inhibition, %; measured here: M. tuberculosis growth (absorbance);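 0% = vehicle and 100% = reference antibiotic; read after six days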
* hit, by the source's call; ? = inconclusive; . = not tested or not shown.

SMILES	PrP 5UTR inh	BJeLR lethal	Bead autofluor	Sa ugtP lethal	Mtb hypoxia rep	Mtb hypoxia rep growth	RN4220 kill
CCOC(=O)N1CCN(C(=O)CSc2nc(-c3cccc(C)c3)ns2)CC1	-25.0	5.2	3766	1.2	44.1*	27.0*	7.6
COc1ccc(CN(C(=O)c2cc3ccccc3oc2=O)C2CCCCC2)cc1OC	-21.4	-7.5	3911	-0.6	5.2	15.3	3.0
CCN(CC)S(=O)(=O)c1ccc(C(=O)NCc2nnc(SCC(=O)OC)n2C)cc1	5.1	.	18096*	14.9	2.2	-0.6	1.8
S=C(Nc1ccc(Br)cc1Cl)N1CCC2(CC1)OCCO2	-25.6	2.6	4757	-8.7	-4.2	5.9	1.7
COc1ccc2cc1Oc1ccc(cc1)CC1c3c(cc4c(c3Oc3cc5c(cc3OC)CCN(C)C5C2)OCO4)CCN1C (stereo unspecified)	.	.	.	-7.4	-4.3	1.7	6.2
COCCNC(=O)CN(C(=O)CCC(=O)Nc1cc(C)on1)c1ccccc1C	-20.7	-6.5	3172	12.5	12.7	0.8	5.0
COc1ccc(OC)c(NC(=O)C(Sc2ccccc2)c2ccccc2)c1 (stereo unspecified)	18.7	-4.5	2680	3.6	.	.	1.9
O=C(CSc1nc2scc(-c3ccccc3)c2c(=O)[nH]1)N1CCCCC1	-11.6	3.9	4054	0.3	10.7	9.0	15.1
CC(=NNc1nc(Nc2ccccc2)nc(N2CCOCC2)n1)c1cccs1	.	.	.	-8.8	2.6	0.9	2.7
Cc1ccccc1OCCCC(=O)Nc1ccc(S(=O)(=O)Nc2onc(C)c2C)cc1	-4.1	-2.5	3526	4.5	0.6	0.6	0.1
O=C(CNC(=O)c1cccs1)N/N=C/c1ccc(O)cc1O	-40.5	-1.7	2262	.	.	.	.
COC(=O)C1=C(c2ccc(Cl)c(C(F)(F)F)c2)CC2CCC1N2C(=O)NC(C)C (stereo unspecified)	.	.	.	-5.1	6.3	3.1	2.3
O=C(NCC(=O)N(Cc1cccs1)C(C(=O)NC1CCCC1)c1ccco1)c1cccs1 (stereo unspecified)	-27.7	-9.3	4374	2.7	.	.	0.4
CNC(=S)N(CCCN(C)C)Cc1cc2cc3c(cc2[nH]c1=O)OCCO3	17.4	-6.7	3112	1.8	-0.1	-1.0	1.6
COc1cc(/C=N/NC(=O)c2ccncc2)ccc1OCC(=O)Nc1ccccc1	-35.9	-5.8	3339	.	.	.	.
Cc1ccnc2c1ccc1c(C)ccnc12	54.5*	.	8301	37.8	.	.	27.6
CC(C)COC(=O)c1cc(-c2ccc(C=Nn3cnnc3)o2)ccc1Cl	.	.	.	1.8	10.6	-7.4	8.6
CC(C)c1ccc2[nH]c3nc(SCC(=O)N4CCOCC4)nnc3c2c1	-25.8	3.4	4948	3.6	5.3	12.8	4.8
Cn1nc(C(=O)NNC(=O)C2CSC3(C)CCC(=O)N23)c2ccccc2c1=O (stereo unspecified)	-11.6	-4.0	.	2.6	-3.3	10.3	1.1
Cc1ccc2[nH]c(=O)c(CN(Cc3ccco3)S(=O)(=O)c3c(C)ccc4nsnc34)cc2c1	2.3	9.9	9615	-1.5	17.1	6.5	2.0

The closing five entries of the section before open the next one.
SMILES	PrP 5UTR inh	BJeLR lethal	Bead autofluor	Sa ugtP lethal	Mtb hypoxia rep	Mtb hypoxia rep growth	RN4220 kill
Cc1ccnc2c1ccc1c(C)ccnc12	54.5*	.	8301	37.8	.	.	27.6
CC(C)COC(=O)c1cc(-c2ccc(C=Nn3cnnc3)o2)ccc1Cl	.	.	.	1.8	10.6	-7.4	8.6
CC(C)c1ccc2[nH]c3nc(SCC(=O)N4CCOCC4)nnc3c2c1	-25.8	3.4	4948	3.6	5.3	12.8	4.8
Cn1nc(C(=O)NNC(=O)C2CSC3(C)CCC(=O)N23)c2ccccc2c1=O (stereo unspecified)	-11.6	-4.0	.	2.6	-3.3	10.3	1.1
Cc1ccc2[nH]c(=O)c(CN(Cc3ccco3)S(=O)(=O)c3c(C)ccc4nsnc34)cc2c1	2.3	9.9	9615	-1.5	17.1	6.5	2.0
Cc1ccc(/C=C/C(=O)c2ccc(N3CCOCC3)cc2)s1	-53.6	-3.4	4948	-2.8	-1.9	-1.9	2.6
CS(=O)(=O)N1CCc2cc(S(=O)(=O)N3CCCCC3)ccc21	3.2	6.9	5117	-2.2	0.2	8.0	-0.3
C=CCn1c(C)cc(C(=O)CSc2nnc3c(Cl)cc(Cl)cn23)c1C	-8.4	-1.8	2637	-21.8	7.4	3.2	-3.1
CN(C)CCN(CC1CCCN(Cc2ccccc2F)C1)C(=O)c1ccc(F)cc1 (stereo unspecified)	-20.1	-2.9	3530	8.7	1.1	-8.9	0.7
Clc1ccccc1CNCC1CCCO1 (stereo unspecified)	-16.5	-7.9	2851	8.1	16.4	9.4	4.9
COC(=O)[C@@]1(C)[C@H]2C(=O)N(C)C(=O)[C@H]2[C@H]2CN=C(SCc3ccccc3)N21	32.5	.	3496	-1.8	2.6	8.4	1.4
C=CCn1c(SCC(=O)Nc2cc(OC)c(NC(=O)c3ccco3)cc2OC)nnc1-c1ccncc1	-7.1	5.7	3642	2.7	.	.	-1.5
COc1cc(/C=C(/NC(=O)c2ccccc2Cl)C(=O)O)cc(OC)c1OC	-6.1	-0.7	2562	.	.	.	.
COc1ccc(N2CCN(CCNS(=O)(=O)c3cccc4nsnc34)CC2)cc1	-1.7	.	2331	2.7	.	.	3.9
COc1ccc(NC(=O)CC(C)c2ccccc2)c([N+](=O)[O-])c1 (stereo unspecified)	-31.7	16.9	2381	.	.	.	.
Clc1ccc(-c2cn3cc(Cl)ccc3n2)cc1	10.2	-2.5	3785	5.1	14.2	7.1	7.5
CC1=CCC(C(=O)N/N=C/c2cccs2)C(c2ccc(F)cc2)C1 (stereo unspecified)	-4.5	-4.7	3470	.	.	.	.
CCOc1ccc(NC2=NC(C)(C)N=C(N)N2)cc1	-1.4	4.8	3033	2.7	15.1	8.6	4.6
CCC(=O)c1cc2c(cc1NC(=O)C(C)C)OCCO2	-12.6	-13.2	2558	2.3	.	.	1.4
COc1ccc(C(CNC(=O)c2cccnc2SC)N2CCOCC2)cc1 (stereo unspecified)	3.8	6.4	4250	3.0	.	.	1.6
O=C(O)c1cc(NN=Nc2ccc(Br)cc2)cc([N+](=O)[O-])c1	-11.4	-0.3	3894	.	.	.	.
COc1ccc(C(=O)NC(=O)CSc2nc3nc(C)cc(C)n3n2)cc1	-17.4	.	4050	9.4	-2.6	-1.7	8.4
O=C(Nc1ccc(Br)cc1Cl)c1ccc2c(=O)n3c(nc2c1)CCC3	-88.0	-4.7	6478	-4.5	-4.5	2.0	3.8
COc1ccc(NC(=O)NC=Cc2ccco2)cc1	.	.	.	-3.8	13.8	7.7	7.8
O=c1cc(-c2ccc(Br)cc2)[nH][nH]1	-32.4	3.2	4432	2.8	-9.0	-5.4	0.0
CC(=O)Nc1ccc(S(=O)(=O)NC(=O)C23CC4CC(CC(C4)C2)C3)cc1	-11.8	10.1	.	-5.7	.	.	-1.8
COc1ccc(O)c(C=NNC(=O)CCC(=O)Nc2cccc(C)c2)c1	.	.	.	5.5	7.3	-9.7	2.2
CCCCNS(=O)(=O)CCNCc1ccco1	2.9	.	2985	-0.6	-4.2	0.6	2.5
CCn1c(C(O)c2ccc3c(c2)OCO3)nc2ccccc21 (stereo unspecified)	-18.9	-3.3	4788	-5.3	.	.	-2.3
CC(=O)c1cccc(NC(=O)Cc2cccs2)c1	-32.7	-6.7	23709*	28.1	9.5	13.1	-2.3
Cc1nn(C)c(NC(=O)c2ccc(Cl)cc2)c1Cl	-2.4	0.3	3492	6.6	-0.4	2.3	2.8
O=C(NCc1ccncc1)C1COc2ccccc2O1 (stereo unspecified)	-9.9	5.1	3052	-3.1	5.7	2.1	4.3
COc1ccc(CC(=O)NNC(=O)c2ccc(SCc3cc(F)ccc3F)c([N+](=O)[O-])c2)cc1	-4.7	8.5	22474*	-14.3	-3.7	12.1	-3.0
Cc1[nH]c(-c2ccc(F)cc2)cc1C(=O)N1CCN(c2ccc(Cl)cc2)CC1	-38.4	5.7	4226	3.7	8.6	3.2	-2.2
CCN(C(=O)CSc1nc2ccccc2n1CC(C)C)c1c(N)n(Cc2ccccc2)c(=O)[nH]c1=O	-14.9	.	3743	6.0	6.9	4.4	0.5
CCOC(=O)/C=C/C(=O)Nc1ccc(S(=O)(=O)Nc2c(C)cc(C)cc2C)cc1	-21.6	3.8	2590	-3.2	1.1	-1.0	17.3
CCS(=O)(=O)N1CCN(c2ccccc2)CC1	-13.4	-8.8	3279	-5.0	11.2	2.0	6.5
Cc1cccc(NC(=O)c2cccc(S(=O)(=O)Nc3c(C)n(C)n(-c4ccccc4)c3=O)c2)c1	-24.0	.	3370	2.0	5.7	0.6	7.2
O=C(N/N=C/c1cccs1)c1cc(C2CC2)nc2ccccc12	-11.5	2.9	2627	.	.	.	.
CC[C@H](C)Cc1cn([C@@H](CCCN=C(N)N)C(=O)NCCCCCCCCCCC(=O)N2CCNCC2)nn1	0.3	4.7	3078	.	.	.	.
O=C(COC(=O)CNC(=O)c1ccc(Cl)cc1Cl)NC1CCCCCCC1	-1.9	-0.6	6824	1.0	3.2	7.9	9.0
COc1ccc(OC)c(S(=O)(=O)N2CCN(c3ccccn3)CC2)c1	3.6	5.7	5940	-3.9	1.9	13.6	-4.2
CC1CCCN(C(=O)COC(=O)Cc2ccc(Cl)cc2)C1 (stereo unspecified)	-1.9	-2.4	3548	-1.6	0.1	7.1	-0.4
CCOC(=O)N1CCN(C(=S)NC(=O)c2ccc(F)cc2)CC1	.	-6.5	.	0.0	13.4	2.6	5.2
CCS(=O)(=O)N1Cc2ccccc2CC1C(=O)OCC(=O)Nc1ccc(C)cc1 (stereo unspecified)	-26.3	0.7	2914	-6.9	.	.	-2.5
CCC(C(=O)NCCCN1CCOCC1)n1c2ccccc2c2nc(=O)cc(C)n21 (stereo unspecified)	-13.9	-2.2	6011	5.2	18.6	5.2	0.6
CCCCCC(=O)NN=Cc1cc(Br)c(O)c(OC)c1	.	.	.	-9.3	-0.2	3.6	-3.9
Cc1nc2ncccn2c1-c1csc(Nc2cccc(C(=O)O)c2)n1	4.5	-5.8	3611	2.9	2.9	-2.0	2.1
COc1cc(N)c(Cl)cc1Cl	-9.7	-1.8	4005	4.8	15.1	7.4	3.7
CCCOc1ccc(C(=O)NCC(c2cccs2)N(C)C)cc1OC (stereo unspecified)	-23.0	-3.1	2336	-1.1	4.9	6.6	2.1
CCOC(=O)CN(C(=O)COc1nc(-c2ccccc2)cc(C)c1C#N)c1ccc(F)cc1	-7.6	-1.6	4449	2.7	6.3	1.2	2.5
O=C1N[C@H](Cc2ccccc2)C(=O)N2[C@@H]3[C@H](C[C@@H]12)c1ccccc1N3OOSc1ccccc1	-10.1	-5.6	2893	-10.2	2.6	-1.8	-11.4
O=C(Nc1nccs1)c1cccc2ccccc12	-32.3	-2.0	.	12.8	17.3	0.8	6.9
COCCn1c(=O)[nH]c2cc(C(=O)Nc3cccc(F)c3)ccc2c1=O	-9.4	12.8	3495	3.7	3.4	5.0	3.0
O=C(CN1C(=O)NC2(CCCCCC2)C1=O)Nc1ccc(Br)cc1Br	-14.1	.	3806	-6.7	10.9	5.8	7.7
CCOc1ccc(CN2CCNC(=O)C2CC(=O)NCc2cc(C)n(C)n2)cc1 (stereo unspecified)	-6.1	6.1	?	-4.9	-8.1	9.8	-1.8
COCCn1cnc2c1c(=O)n(CC#N)c(=O)n2Cc1ccccc1	-7.7	-8.7	3656	-1.7	5.4	12.1	2.0
Cc1ccc(NC(=O)CC2(CC(=O)O)CCCC2)c(C)c1	-5.7	-0.1	2861	4.6	-4.8	-6.8	4.4
O=C1CCC(=O)N1c1ccccc1	-22.5	16.5	3679	12.3	2.0	-1.1	-0.2
CCc1cccc(C)c1NC(=O)CN1C(=O)NC(Cc2ccccc2)C1=O (stereo unspecified)	4.1	6.1	3875	1.6	4.3	-0.2	2.0
COc1ccc(C(c2c(NC(C)=O)sc3c2CCCC3)N2CCN(CCO)CC2)cc1OC (stereo unspecified)	-7.3	0.9	4858	11.0	.	.	-1.5

From PubChem
